# GLA inh pH 4.5 – inhibitors of human alpha-galactosidase A at pH 4.5; AID 1467; P06280; purified enzyme, 4-MU-alpha-Gal fluorescence, pH 4.5; 230,000 tested, under 10 active; activity change, negative = inhibition, % at 105 µM; inconclusive = small, poorly fitted or top-dose-only inhibition, or a rising curve; inactive = flat fitted curve, though single readings scatter; no compound was filed as active;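 further: 0% = full activity with enzyme and -100% = basal without enzyme; dose as in the result columns while the protocol names 77 µM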
# Rango dissoc inh – inhibition of RanGTP-driven Rango-importin beta dissociation; Potency, µM (highest dose often 46.1 µM), for the others: top-dose activity change, negative = inhibition; hit rate 0.071% among 340,000; Biochemical FRET Rango-importin beta, RanGTP-induced dissociation; AID 540253; O95149+P62826; active means falling FRET ratio curve, often poorly fitted, with flat reads before Ran was added; inconclusive means other falling curves, or compound fluorescence or quenching; inactive means flat or rising ratio curve;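 further: potency means the concentration at half of the fitted maximal effect; % of control where 0% means no effect; nearly all actives have a fitted effect of over 45% in size; -100% = wells without RanGTP and RCC1; the record marks most hits as doubtful in a second field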
#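 Two FRET readings bracket the reaction: one 5 min after compound meets Rango–importin beta, another 45 min after RanGTP-RCC1 (0.6 uM Ran, 0.2 uM RCC1, 2 mM GTP) is added. Only the second defines inhibition.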
# miR-21 reporter – miR-21 reporter, rising signal | HeLa miR-21 FLuc reporter, luciferase, 48 h | Potency, µM (top dose mostly 38.3 µM), for inactives: at the highest dose reporter change, positive = more light | 340,000 tested, under 10 active; active = well fitted rising curve with a large enough effect; inconclusive = small, poorly fitted or top-dose-only effect; inactive = no such curve, though single readings can be large or run the other way;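 further: % of control where 0% means no effect; miR-21 action dims this reporter so a rising signal means less miR-21 action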
#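 HeLa cells endogenously expressing miR-21, stably carrying CMV-driven firefly luciferase with a downstream miR-21 binding site, 2000 cells/well. Titrations up to approximately 40 uM, 48 hours; luciferase luminescence read.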
# Rango-impB inh – Rango-importin beta binding inhibition; Q14974; Rango CFP/YFP FRET sensor + importin beta, 45 min; Potency, µM (series often up to 92.2 µM), for the others: at the top dose inhibition of complex formation; hit rate 0.031% among 340,000; AID 540263; active = rising FRET ratio curve, often small or poorly fitted; inconclusive = mostly compound fluorescence or quenching in the first reads; inactive = flat curves in all reads;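 further: potency means the concentration at half of the fitted maximal effect; 0% = DMSO wells and 100% = buffer wells lacking importin beta; nearly all actives have a fitted effect of over 15% in size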
# Target sequence (Q14974 whole entry, looked up): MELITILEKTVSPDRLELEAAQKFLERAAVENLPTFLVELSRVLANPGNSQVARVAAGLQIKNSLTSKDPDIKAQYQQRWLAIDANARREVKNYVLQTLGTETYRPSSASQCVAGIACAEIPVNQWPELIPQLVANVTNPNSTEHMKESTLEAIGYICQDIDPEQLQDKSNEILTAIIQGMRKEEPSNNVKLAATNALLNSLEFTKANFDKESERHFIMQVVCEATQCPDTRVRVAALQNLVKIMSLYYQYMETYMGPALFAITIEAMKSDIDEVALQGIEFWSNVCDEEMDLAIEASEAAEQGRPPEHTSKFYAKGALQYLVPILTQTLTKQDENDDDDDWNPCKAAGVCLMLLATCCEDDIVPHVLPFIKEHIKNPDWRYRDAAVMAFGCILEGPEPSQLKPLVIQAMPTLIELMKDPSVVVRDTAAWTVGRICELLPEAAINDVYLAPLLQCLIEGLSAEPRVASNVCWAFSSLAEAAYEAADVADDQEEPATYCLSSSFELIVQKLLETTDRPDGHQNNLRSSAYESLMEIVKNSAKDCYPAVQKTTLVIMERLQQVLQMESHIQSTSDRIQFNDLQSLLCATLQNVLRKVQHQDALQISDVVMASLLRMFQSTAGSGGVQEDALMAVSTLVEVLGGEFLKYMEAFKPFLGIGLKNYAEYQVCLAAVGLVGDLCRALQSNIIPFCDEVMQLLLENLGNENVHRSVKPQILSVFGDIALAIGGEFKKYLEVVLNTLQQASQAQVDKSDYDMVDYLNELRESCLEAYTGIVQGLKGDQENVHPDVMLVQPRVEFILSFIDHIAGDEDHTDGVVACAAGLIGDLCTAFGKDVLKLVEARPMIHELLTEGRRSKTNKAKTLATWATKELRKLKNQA
#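 FRET biosensor Rango (snurportin 1 IBB between N-terminal EYFP and C-terminal Cerulean), 50 nM in PBS/1 mM DTT/0.02% Tween-20/0.1% BSA, preincubated 5 min RT with compound; 0.125 microM importin beta added, 45 min RT, CFP/YFP FRET ratio read.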
# * marks the source's active call; other numbers are inactive results; ? = inconclusive; · = not tested or not shown; & = joins results of further samples; [ ] = another dose, or the depositor's remark. A portion of the library; count on the stated rates, not on these rows.
GLA inh pH 4.5,Rango dissoc inh,miR-21 reporter,Rango-impB inh,mol
-3,?,6%,?,COC(=O)[C@@H]1[C@H]2C[C@H]3c4[nH]c5ccccc5c4CCN3C[C@@H]2CC[C@@H]1O
·,-1%,·,-4.3%,CCOc1ccc(S(=O)(=O)N2CCN(CCNS(=O)(=O)c3ccc(C)cc3)CC2)cc1
·,0%,-6%,3.9%,COc1cccc(N=Nc2ccc3cccnc3c2O)c1
6,-12%,-4%,0.5%,Cc1ccc2nc3c(cc2c1)c(NC(=O)c1ccccn1)nn3CC(C)C
2,10%,-5%,1.7%,C/C(=N\NC(=O)C(=O)N/N=C(\C)c1cccc(O)c1)c1cccc(O)c1
·,-11%,0%,-3.0%,Cc1cccc(NC(=O)CNC(=O)CNC(=O)Cc2ccccc2)c1
7,-1%,-8%,-3.0%,Cc1cc(C)nc(NCCO)n1
·,14%,0%,-1.6%,CC(C)Cc1cc(C(C)(C)C)ccc1OC(=S)N(C)C
-1,-16%,-49%,-0.3%,COc1ccc(/C=C2\N=C3CCCCCN3C2=O)cc1OC
1,1%,-1%,-1.8%,CCC(=O)Nc1ccc(NC(=O)CSc2nnnn2CC)cc1C
·,-1%,-1%,-2.1%,COCCn1nnnc1C(c1ccc(OC)cc1)N1CCN(C(=O)c2ccco2)CC1 (centres undefined)
5,?,-35%,?,Nc1ccc2nc(SCC(=O)N3CCOCC3)sc2c1
·,1%,-10%,-1.4%,O=C(c1ccsc1)N1CCCC(Nc2cccc(F)c2)C1 (centres undefined)
-2,8%,-6%,1.3%,O=C(CSc1nnc2c(n1)[nH]c1ccc(F)cc12)N1CCOCC1
0,12%,-14%,-4.2%,COc1ccc(CSc2nnnn2-c2ccccc2)cc1
-7,-19%,-7%,-2.3%,NC(=O)SCC(=O)Nc1ccccc1C(=O)O
·,-4%,·,-4.5%,O=C(COC(=O)c1ccc(Cl)nc1)NCCc1ccccc1
9,?,-3%,?,Cc1ccc(C)c(NC(=O)/C(C#N)=C/c2cn(CC(=O)NCc3ccco3)c3ccccc23)c1
-6,?,-6%,-6.5%,CC12CCC(c3c(C(=O)Nc4nccs4)nn(-c4ccccc4)c31)C2(C)C (centres undefined)
14,1%,-12%,4.4%,CC(C)(C)c1ccc(-c2nc(C=O)c3ccccn23)cc1
-1,?,9%,0.7%,Cc1nc(C(=O)NNC(=O)c2ccc(Cl)cc2)c(C(F)(F)F)o1
·,-7%,3%,-0.5%,CC(=O)NC1CCN(CC(=O)Nc2nccs2)CC1
-3,-1%,-9%,-0.1%,COc1ccc(N2CCN(C(=O)c3ccc(C(C)(C)C)cc3)CC2)cc1
-1,2%,-4%,-0.2%,CCCCOC(=O)C(C)Nc1n[nH]c(=O)[nH]c1=O (centres undefined)
13,7%,1%,0.0%,COc1cccc(C2Nc3cc(Cl)c(S(N)(=O)=O)cc3S(=O)(=O)N2)c1 (centres undefined)
-2,?,5%,?,CCCCn1c(=O)[nH]c2nc3cc(NC(C)=O)ccc3nc2c1=O
-11,-18%,·,-2.8%,OCCN1CCN(CC/C=C2/c3ccccc3Sc3ccc(C(F)(F)F)cc32)CC1
-6,-3%,-6%,2.8%,CCCCn1c(SCc2cccnc2)nc2c1c(=O)n(C)c(=O)n2C
6,?,?,?,Cc1ccc(N=Cc2cc3c(cc2O)OC(N)=C(C#N)C3c2ccccc2)cc1 (centres undefined)
-2,0%,-13%,-3.8%,Cc1ccc(S(=O)(=O)NCC(=O)N/N=C/c2ccc(Cl)cc2Cl)cc1

# Retrieved by structure from the list above (4):
GLA inh pH 4.5,Rango dissoc inh,miR-21 reporter,Rango-impB inh,mol
5,?,-35%,?,Nc1ccc2nc(SCC(=O)N3CCOCC3)sc2c1
13,7%,1%,0.0%,COc1cccc(C2Nc3cc(Cl)c(S(N)(=O)=O)cc3S(=O)(=O)N2)c1 (centres undefined)
-1,2%,-4%,-0.2%,CCCCOC(=O)C(C)Nc1n[nH]c(=O)[nH]c1=O (centres undefined)
7,-1%,-8%,-3.0%,Cc1cc(C)nc(NCCO)n1

# Continued:
GLA inh pH 4.5,Rango dissoc inh,miR-21 reporter,Rango-impB inh,mol
0,?,-7%,?,O=C1CCCc2c1cc(C(=O)NCc1ccco1)c(=O)n2-c1ccc(Cl)cc1
0,-13%,-9%,2.2%,O=C(CC1C(=O)NCCN1C(=O)Nc1ccc(F)cc1F)Nc1cc(Cl)ccc1Cl (centres undefined)
-5[21.1 µM],8%,-55%,1.2%,COC(=O)c1ccc(CN2C(=O)NC3(CCCCC3)C2=O)cc1
4,1%,10%,4.7%,NC1=NC[C@@H](Cc2ccc(O)cc2)N1CCCCC1CCCCC1
6,2%,-20%,-0.4%,Cc1csc(NC(=O)CSc2nnc(-c3ccc(S(=O)(=O)N4CCCC4)cc3)o2)n1
·,2%,-3%,0.0%,O=C(C[n+]1ccccc1)N/N=C/c1cccc(Cl)c1Cl
-8,-10%,?,-1.5%,Nc1ccc2c(c1)C(=O)C(=O)c1ccccc1-2
-2,-9%,-1%,-1.3%,O=C(CNCc1ccc(F)cc1)Nc1ccccc1-c1ccccc1
4,-11%,0%,-3.2%,N#CC1(C#N)C(C(=O)C23CC4CC(CC(C4)C2)C3)C12CCOCC2 (centres undefined)
0,-6%,-3%,1.6%,COc1ccccc1NS(=O)(=O)c1ccc2c(c1)n(C)c(=O)n2C
6&4,0%,0%,2.3%,COC(=O)[C@@H]1C[C@@]2(O)[C@@H](O)[C@@H](O)[C@@H](O)C[C@H]2N1Cc1cc(OC)cc(OC)c1
·,3%,·,0.1%,CC(=O)c1c(C)[nH]c(C(=O)COC(=O)c2c(-c3ccccc3)noc2C)c1C
-2,?,-6%,1.1%,CS(=O)(=O)N(CC(=O)NC1CCCCCC1)Cc1ccccc1
-26,14%,0%,1.1%,CCOC(=O)/C(C(N)=NCCO)=C(/O)c1ccccc1
3,2%,-31%,-2.0%,Cc1ccc(NC(=O)Nc2ccc(F)cc2)cc1Cl
0,-6%,-4%,-0.1%,CCCOc1ccc(/C=C/C(=O)Nc2ccc([N+](=O)[O-])cc2C)cc1OC
-4,-15%,-61%,3.9%,Cc1cccc(N/N=C2/COC(C)(C)CC2=O)c1
·,-13%,5%,-0.5%,COc1ccc(N(C(=O)c2snc(C(N)=O)c2N)C(C(=O)NC2CCCC2)c2ccco2)cc1 (centres undefined)
0,5%,-2%,1.7%,Cc1ccc(OCc2nnc(SCCN3CCOCC3)n2C)cc1
·,-28%,2%,-5.1%,CC1CN(C(=O)CCNC(=O)c2ccc(Cl)cc2)CC(C)O1 (centres undefined)
-2,0%,-11%,0.0%,Cc1sc2ncn(CCC(=O)O)c(=O)c2c1C
0,-3%,-2%,-1.1%,COc1ccc(OC)c(NC(=O)CSc2nnc(Cn3c(=O)sc4ccccc43)n2C)c1
·,-1%,·,-0.4%,CCOC(=O)C1CCN(C(=O)COC(=O)CNS(=O)(=O)c2ccc(SC)c([N+](=O)[O-])c2)CC1
4,16%,-13%,-2.8%,O=C(Nc1nccs1)C1Cc2ccccc2CN1S(=O)(=O)c1ccc(F)cc1 (centres undefined)
·,3%,·,4.6%,COc1ccc2ccc(O)c(CN3CCN(S(=O)(=O)c4cccc(C(F)(F)F)c4)CC3)c2c1
·,9%,-2%,-0.3%,O=C(NC1CCCC1)c1ccc(CS(=O)Cc2ccccc2Cl)o1 (centres undefined)
·,-8%,-5%,-1.7%,COc1ccc(/C=C/C(=O)NCCCN2CCCC2)cc1
2,-2%,-1%,-0.6%,O=C(O)/C=C/C(=O)Nc1ccccc1SC(F)(F)F
2,11%,-4%,0.4%,FC(F)c1nnc2c(Cl)cc(C(F)(F)F)cn12
-6,14%,3%,3.1%,COc1ccc(-c2noc(CN(C)C(=O)Nc3ccccc3)n2)cc1
-2,-14%,-1%,0.0%,CC(=O)Nc1ccc(Nc2nc(Cl)nc(Nc3ccc(NC(C)=O)cc3)n2)cc1
8,-4%,-30%,-1.4%,NC(=O)c1c(NC(=O)CN2CCCC2)sc2c1CCCC2
·,-2%,1%,-0.8%,Cc1cc(C)c(S(=O)(=O)NCc2ccc3c(c2)OCO3)cc1C
2,18%,14%,1.9%,C=CCNC(=O)c1ccccc1NC(=O)c1ccc(Cl)c(S(=O)(=O)Nc2cc(C)ccc2C)c1
·,1%,0%,1.5%,C[C@H](NC(=O)c1ccccc1F)C(=O)N1CCC2(CC1)NCCc1[nH]cnc12
·,?,-59%,-0.9%,Cc1cccc(NC(=O)/C(C#N)=C/c2ccccc2O)n1
?,?,-1%,?,Cc1cc(=O)oc(C)c1C(=O)NCCCN1C(C)CCCC1C (centres undefined)
4,1%,-2%,1.0%,Cc1nnc(SCC(=O)NC(=O)NC(C)(C)C)n1N
·,-14%,-31%,0.1%,CCCC(=O)Nc1ccc(-c2cn3cccnc3n2)cc1
·,-12%,-4%,-1.6%,CN(CCc1ccccn1)C1CCCN(S(=O)(=O)c2ccccc2)C1 (centres undefined)
-2,-10%,-5%,-1.2%,COCC(C)NCc1cccc(OC)c1OC (centres undefined)
1,-27%,0%,0.4%,COc1ccccc1Nc1nc(N)nc(CN2CC(C)CC(C)C2)n1 (centres undefined)
·,12%,-28%,3.9%,Cc1ccc(NC(=O)Nc2ccon2)cc1Cl
·,-5%,0%,-1.6%,CC(=O)NN1C(=O)c2ccccc2NC1c1ccccc1 (centres undefined)
-3,?,-6%,2.6%,CCOC(=O)c1c(C)n2c3c(cc(C)cc13)CCC2
-11,8%,17%,?,O=C(c1ccc(Oc2ccc(C(F)(F)F)cn2)cc1)N1CCN(c2ccccc2)CC1
6,3%,-28%,0.0%,Cc1ccc(C(=O)Nc2ccc(C)c(S(=O)(=O)N(C)C)c2)s1
-13,-1%,1%,-1.0%,Cn1c(=O)oc2cc(S(=O)(=O)NCCC(=O)N3CCc4ccccc4C3)ccc21
0,19%,0%,-1.7%,COC(=O)c1ccc(COC(=O)CNC(=O)c2ccco2)cc1
·,-4%,·,-1.5%,CCCn1nc(C(=O)NNC(=O)CSCC(=O)Nc2cc(C)on2)c2ccccc2c1=O
-4,3%,8%,-3.1%,O=C(N1CCN(c2cccc(Cl)c2)CC1)C1(S(=O)(=O)c2ccc(Cl)cc2)CC1
·,1%,-5%,-4.4%,CCCCc1nc2cc(C(=O)NC3CCOC(C)(C)C3)ccc2o1 (centres undefined)
-6,17%,-4%,-4.2%,Cc1nc(-c2ccc(S(=O)(=O)Nc3cc(S(=O)(=O)N(C)C)ccc3C)s2)cs1
-5,0%,3%,2.5%,COc1cc(C2SCC(=O)N2CCN2CCCCC2)ccc1O (centres undefined)
1,?,-9%,?,COc1ccc(-c2ccc(-c3noc(-c4ccccc4OC)n3)c(OC)n2)cc1

# In the list so far, these contain a thiophene ring, fused or not:
GLA inh pH 4.5,Rango dissoc inh,miR-21 reporter,Rango-impB inh,mol
·,1%,-10%,-1.4%,O=C(c1ccsc1)N1CCCC(Nc2cccc(F)c2)C1 (centres undefined)
-2,0%,-11%,0.0%,Cc1sc2ncn(CCC(=O)O)c(=O)c2c1C
8,-4%,-30%,-1.4%,NC(=O)c1c(NC(=O)CN2CCCC2)sc2c1CCCC2
6,3%,-28%,0.0%,Cc1ccc(C(=O)Nc2ccc(C)c(S(=O)(=O)N(C)C)c2)s1
-6,17%,-4%,-4.2%,Cc1nc(-c2ccc(S(=O)(=O)Nc3cc(S(=O)(=O)N(C)C)ccc3C)s2)cs1

# Source: PubChem
